Screens as filed in PubChem BioAssay.
rRNA inh HTS: inhibitors of bacterial rRNA selective over humanized ribosomes. E. coli WT GFP vs humanized-ribosome RFP mutants, fluorescence, 24 h; hits give low values; DMSO median 0, no signal -100. GFP signal change (wild-type ribosome), % (test concentration not listed). hit rate 1.6% among 350,000. AID 720706;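 active = significant combined selectivity score with lowered wild-type GFP, culture density cut under 30%, mutant RFP and density less affected; inactive = any of these conditions unmet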; also: one replicate is shown; some compounds called inactive have numbers as strong as hits
FGF22 binding: shifts melting point of recombinant human FGF22; recombinant FGF22 thermal shift, SYPRO orange fluorescence; percent of sucrose octasulfate shift, DMSO zero; calls only at 9.99 µM; hit rate 1.5% among 340,000;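 active = melting point raised past a set limit in the mean and every replicate; three in four hits are not shown here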
Target sequence (Q9HCT0 whole entry, looked up): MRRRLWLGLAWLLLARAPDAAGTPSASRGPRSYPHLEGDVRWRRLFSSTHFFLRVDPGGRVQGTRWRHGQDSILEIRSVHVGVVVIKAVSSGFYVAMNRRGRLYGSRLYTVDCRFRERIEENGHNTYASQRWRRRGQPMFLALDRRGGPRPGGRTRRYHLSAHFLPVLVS
rRNA inh HTS OD600: recorded beside rRNA inh HTS, whose call it bears; OD600 change, %; measured here: OD600 growth;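 optical density of the mix in the first replicate; 0 = DMSO median and -100 = no signal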
rRNA inh HTS RFP: also measured in rRNA inh HTS; calls as there; RFP signal change, %; measured here: RFP humanized mutant strains;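 first replicate; 0 = DMSO median and -100 = no signal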
* = called active by the depositor; i = inactive.

SMILES	rRNA inh HTS	rRNA inh HTS OD600	rRNA inh HTS RFP	FGF22 binding
C[C@H](CO)N1C[C@H](C)[C@@H](CN(C)S(=O)(=O)c2ccc(F)cc2)Oc2ccc(NS(=O)(=O)c3cn(C)cn3)cc2C1=O	2.8	4.2	1.4	i
OC[C@@H]1[C@@H](c2ccccc2)C2(CN(CC3CCOCC3)C2)N1Cc1cncnc1	1.0	2.9	0.4	i
C/C=C/c1ccc([C@H]2[C@@H](CN(C)C(=O)C3CC3)N(C(=O)C3CC3)[C@H]2CO)cc1	-0.1	0.4	-1.9	i
Cc1cccc(S(=O)(=O)N2C[C@H]3[C@@H](c4ccccc42)[C@H](CO)N3C(=O)C2CC2)c1	-4.6	-14.2	-3.8	i
CCNC(=O)Nc1ccc2c(c1)C(=O)N(C)[C@H]1CC[C@@H](CC(=O)NCC3CCCCC3)O[C@@H]1CO2	1.5	3.4	2.0	i
O=C(C[C@@H]1CC[C@@H]2[C@H](COC[C@@H](O)CN2S(=O)(=O)c2cccc(Cl)c2)O1)NCCCN1CCOCC1	2.5	2.2	2.6	i
C[C@@H]1CN([C@H](C)CO)S(=O)(=O)c2ccc(C#CCN(C)C)cc2O[C@@H]1CN(C)C(=O)C1CCC1	3.9	8.4	-2.0	i
CCC(=O)N1CC2(C1)[C@@H](c1ccccc1)[C@@H](CO)N2C(=O)c1ccncc1	2.6	2.4	-4.6	i
O=C(NC1CCCC1)N1CCCCN2[C@@H](CO)[C@H](c3ccc(/C=C/c4ccccc4)cc3)[C@@H]2C1	-58.4	-73.1	-19.1	i
COc1ccc2c3c([nH]c2c1)[C@H](CO)N(C(=O)c1ccc(F)cc1)CC31CCN(C)CC1	4.3	11.8	-3.3	i
C[C@@H]1CCCCO[C@@H](CN(C)S(=O)(=O)c2ccc(Cl)cc2)[C@@H](C)CN([C@@H](C)CO)C(=O)c2cc(NC(=O)CCC(F)(F)F)ccc2O1	4.7	-0.3	-3.0	i
CC(C)NC(=O)N[C@@H]1CC[C@@H](CC(=O)N2CCCCC2)O[C@@H]1CO	-2.7	2.7	2.3	i
O=C(C[C@@H]1CC[C@H]2[C@@H](COC[C@@H](O)CN2Cc2ccc(Cl)cc2)O1)NCc1ccccc1Cl	-27.3	-71.5	1.8	i
COc1ccc(S(=O)(=O)N(C)C[C@H]2Oc3c(NC(=O)NC(C)C)cccc3C(=O)N([C@@H](C)CO)C[C@H]2C)cc1	-0.4	1.8	-0.5	i
CC(C)NC(=O)N(C)C[C@@H]1OCCCC[C@H](C)Oc2ccc(NC(=O)Nc3ccc(F)cc3)cc2C(=O)N([C@H](C)CO)C[C@@H]1C	-2.1	-5.1	1.6	i

3 compounds picked at random from those above:
SMILES	rRNA inh HTS	rRNA inh HTS OD600	rRNA inh HTS RFP	FGF22 binding
C/C=C/c1ccc([C@H]2[C@@H](CN(C)C(=O)C3CC3)N(C(=O)C3CC3)[C@H]2CO)cc1	-0.1	0.4	-1.9	i
C[C@@H]1CN([C@H](C)CO)S(=O)(=O)c2ccc(C#CCN(C)C)cc2O[C@@H]1CN(C)C(=O)C1CCC1	3.9	8.4	-2.0	i
CCNC(=O)Nc1ccc2c(c1)C(=O)N(C)[C@H]1CC[C@@H](CC(=O)NCC3CCCCC3)O[C@@H]1CO2	1.5	3.4	2.0	i

Continued.
SMILES	rRNA inh HTS	rRNA inh HTS OD600	rRNA inh HTS RFP	FGF22 binding
C[C@H](CO)N1C[C@H](C)[C@@H](CN(C)S(=O)(=O)c2ccccc2F)Oc2cc(-c3ccncc3)ccc2S1(=O)=O	-10.7	-14.8	-1.1	i
C[C@@H]1CCCCO[C@H](CN(C)C(=O)Nc2ccc(F)cc2)[C@@H](C)CN([C@H](C)CO)C(=O)c2cc(NC(=O)Nc3ccc(F)cc3)ccc2O1	0.7	3.0	1.5	i
COc1ccc(CN(C)C[C@H]2Oc3ccc(NC(=O)Nc4ccc(OC)cc4)cc3CC(=O)N([C@H](C)CO)C[C@H]2C)cc1	-0.5	-18.6	5.6	i
COc1ccc(CNC(=O)C[C@H]2CC[C@@H](NC(=O)Nc3ccc4c(c3)OCO4)[C@H](CO)O2)cc1	0.2	2.5	1.2	i
CO[C@@H]1CN(C)C(=O)c2cc(NS(=O)(=O)c3ccccc3)ccc2OC[C@@H](C)N(Cc2cccnc2)C[C@H]1C	-1.3	-3.9	4.2	i
COC(=O)C[C@H]1C[C@@H]2c3cc(NC(=O)Cc4ccncc4)ccc3O[C@@H]2[C@@H](CO)O1	-1.0	1.4	-1.0	i
C[C@@H]1CN([C@H](C)CO)C(=O)c2cc(NC(=O)C3CCCCC3)ccc2O[C@@H]1CN(C)S(=O)(=O)c1cn(C)cn1	-1.2	-6.2	-1.0	i
COc1ccc(NC(=O)N(C)C[C@H]2Oc3ncc(C4=CCCC4)cc3C(=O)N([C@H](C)CO)C[C@H]2C)cc1	-2.0	8.7	-7.2	i
COc1ccccc1NC(=O)N1C[C@@H](O)COC[C@@H]2O[C@@H](CC(=O)N3CCC(Cc4ccccc4)CC3)CC[C@H]21	-3.1	-5.2	-3.5	i
C[C@@H]1CN([C@H](C)CO)C(=O)c2cc(N(C)C)ccc2O[C@@H]1CN(C)C	2.4	4.6	0.3	i
C/C=C/c1cnc2c(c1)C(=O)N([C@H](C)CO)C[C@@H](C)[C@@H](CN(C)S(=O)(=O)c1ccc(OC)cc1)O2	-0.2	-0.7	0.0	i
C/C=C/c1cnc2c(c1)C(=O)N([C@@H](C)CO)C[C@@H](C)[C@H](CN(C)C(=O)Nc1cccc(OC)c1)O2	3.2	9.4	2.1	i
CO[C@H]1CN(C)C(=O)c2cc(NS(=O)(=O)CC(F)(F)F)ccc2OC[C@@H](C)N(C)C[C@@H]1C	-0.6	-6.7	0.4	i
CCCN1[C@@H]2Cn3c(ccc(-c4ccncc4)c3=O)[C@H]1[C@@H](C(=O)NCCc1cn(C)cn1)[C@@H]2CO	1.9	4.3	-2.0	i
CC(C)[C@H](NC(=O)C1CC1)C(=O)N1CCC[C@H]1C(=O)NCc1ccccc1	5.6	7.2	1.9	i
COc1ccc(NC(=O)N(C)C[C@@H]2Oc3c(NC(=O)c4ccncc4)cccc3C(=O)N([C@@H](C)CO)C[C@@H]2C)cc1	2.9	0.2	-5.6	i
COC(=O)[C@]12C[C@H](CC(=O)NCc3cccc(C(F)(F)F)c3)C(=O)N(CCC3=CCCCC3)C1=C[C@H](C(C)(C)C)O[C@@H]2C	11.9	5.8	3.1	i
C[C@H]1CN([C@@H](C)CO)C(=O)c2cc(NS(=O)(=O)c3cccs3)ccc2O[C@@H]1CN(C)Cc1ccc(-c2ccccc2)cc1	8.3	-6.8	13.7	i
CC(=O)N1[C@H](CO)[C@H](c2ccccc2)[C@@H]1CN(C)S(=O)(=O)c1ccccc1	-4.1	0.6	-1.3	i
CO[C@@H]1CN(C)C(=O)c2cc(NC(=O)C3CC3)ccc2OC[C@H](C)N(Cc2cc(F)ccc2F)C[C@@H]1C	-7.8	-13.7	0.6	i
CCC(=O)N(C)C[C@H]1Oc2cc(C#CC(C)(C)O)ccc2S(=O)(=O)N([C@@H](C)CO)C[C@H]1C	3.1	9.2	-1.8	i
CCC(=O)Nc1ccc2c(c1)OC[C@@H](C)N(Cc1ccccc1)C[C@@H](C)[C@@H](OC)CN(C)C2=O	-1.2	-3.7	-1.7	i
C[C@H](CO)N1C[C@H](C)[C@@H](CN(C)Cc2ccccc2)Oc2ccc(NS(=O)(=O)c3ccc(F)cc3)cc2CC1=O	0.0	-14.1	9.8	i
C[C@H]1CN([C@@H](C)CO)C(=O)c2cccc(NC(=O)Nc3ccc(C(F)(F)F)cc3)c2O[C@H]1CN(C)S(C)(=O)=O	-10.2	-29.0	-4.2	i
Cc1noc(C)c1S(=O)(=O)N(C)C[C@@H]1Oc2ccc(NS(=O)(=O)c3ccc(F)cc3)cc2CC(=O)N([C@H](C)CO)C[C@@H]1C	-1.5	-3.8	0.3	i
COc1ccccc1-c1ccc([C@@H]2[C@@H](CO)N3CCCCN(C(=O)CN4CCOCC4)C[C@@H]23)cc1	1.4	-7.5	-0.7	i
O=C(C[C@H]1CC[C@@H]2[C@H](COC[C@@H](O)CN2C(=O)C2CCCC2)O1)NCc1ccncc1	7.0	16.4	32.7	i
C[C@@H](NC(=O)[C@@H]1[C@@H](CO)[C@@H]2Cn3c(ccc(-c4ccccc4)c3=O)[C@H]1N2C)c1ccccc1	-1.2	-1.0	-0.6	i
C[C@@H]1CN([C@H](C)CO)S(=O)(=O)c2ccc(-c3ccncc3)cc2O[C@@H]1CN(C)Cc1ccc(Oc2ccccc2)cc1	-0.4	5.1	4.7	i
O=C(C[C@H]1CC[C@H]2[C@@H](COC[C@@H](O)CN2Cc2ccc(F)cc2)O1)N1CCc2ccccc2C1	-17.6	-48.5	14.0	i

Shown bar-delimited: two of the compounds above.
Molecule | rRNA inh HTS | rRNA inh HTS OD600 | rRNA inh HTS RFP | FGF22 binding
CO[C@@H]1CN(C)C(=O)c2cc(NC(=O)C3CC3)ccc2OC[C@H](C)N(Cc2cc(F)ccc2F)C[C@@H]1C | -7.8 | -13.7 | 0.6 | i
COC(=O)[C@]12C[C@H](CC(=O)NCc3cccc(C(F)(F)F)c3)C(=O)N(CCC3=CCCCC3)C1=C[C@H](C(C)(C)C)O[C@@H]2C | 11.9 | 5.8 | 3.1 | i

The list goes on:
SMILES	rRNA inh HTS	rRNA inh HTS OD600	rRNA inh HTS RFP	FGF22 binding
CCN1[C@H](C(=O)NC2CCCC2)[C@@H](CO)[C@@H]2Cn3c(ccc(-c4ccccc4F)c3=O)[C@@H]21	-9.9	-2.5	-0.4	i
CC(C)NC(=O)Nc1ccc2c(c1)C(=O)N([C@@H](C)CO)C[C@H](C)[C@H](CN(C)Cc1ccncc1)O2	0.1	4.5	1.8	i
COCCNC(=O)C[C@H]1C[C@@H]2c3cc(N(C)C)ccc3O[C@@H]2[C@H](CO)O1	6.4	7.7	2.4	i
C[C@H]1CN([C@@H](C)CO)C(=O)c2cc(Br)cnc2O[C@H]1CN(C)S(=O)(=O)c1ccc(F)cc1	3.2	9.0	-0.2	i
CCC(=O)N1C[C@H](C)[C@@H](OC)CN(C)C(=O)c2cc(NC(=O)C3CCCCC3)ccc2OC[C@@H]1C	0.3	3.0	2.6	i
CC(C)C#Cc1ccc2c(c1)O[C@@H](CN(C)Cc1ccccn1)[C@H](C)CN([C@@H](C)CO)S2(=O)=O	-42.4	-55.3	18.1	i
C[C@@H]1CCCCO[C@H](CN(C)Cc2ccncc2)[C@@H](C)CN([C@H](C)CO)C(=O)c2cc(NC(=O)Nc3ccc4c(c3)OCO4)ccc2O1	-0.7	1.4	0.1	i
COc1ccc(NC(=O)N(C)C[C@@H]2OCCCC[C@H](C)Oc3ccc(NS(=O)(=O)c4cn(C)cn4)cc3C(=O)N([C@@H](C)CO)C[C@@H]2C)cc1	-1.7	-0.2	1.1	i
O=C(O)C[C@@H]1C=C[C@H](NC(=O)Nc2cc(F)ccc2F)[C@H](CO)O1	2.2	5.8	-0.9	i
CC(C)NC(=O)Nc1ccc2c(c1)CC(=O)N([C@@H](C)CO)C[C@@H](C)[C@H](CN(C)S(=O)(=O)c1cccs1)O2	1.3	1.2	0.6	i
CCCNC(=O)N(C)C[C@@H]1Oc2ncc(C#CCC3CCCC3)cc2C(=O)N([C@H](C)CO)C[C@H]1C	0.4	-5.5	1.7	i
COc1ccc(NC(=O)N2C[C@H](O)COC[C@@H]3O[C@H](CC(=O)NCc4ccncn4)CC[C@H]32)cc1	3.2	-7.3	2.3	i
C[C@H](CO)N1C[C@H](C)[C@H](CN(C)S(C)(=O)=O)Oc2ccc(NC(=O)Cc3cn(C)c4ccccc34)cc2CC1=O	5.7	-0.2	2.1	i
CCC(=O)N[C@H]1C=C[C@@H](CC(=O)NCCN2CCCCC2)O[C@H]1CO	1.1	-2.8	-2.0	i
CN1CCN(C(=O)C[C@@H]2C[C@H]3c4cc(NC(=O)CC5CC5)ccc4O[C@H]3[C@H](CO)O2)CC1	-0.5	3.3	-2.2	i
C[C@H]1CN([C@@H](C)CO)C(=O)CCCn2nncc2CO[C@H]1CN(C)C(=O)Nc1cccc(F)c1	-1.2	-3.3	2.5	i
Cc1cc(C(=O)Nc2cccc3c2O[C@H](CN(C)S(C)(=O)=O)[C@H](C)CN([C@H](C)CO)C3=O)n(C)n1	-1.2	1.1	-2.5	i
C[C@@H]1CN([C@H](C)CO)C(=O)CCCn2cc(nn2)CO[C@H]1CN(C)Cc1ccccc1C(=O)O	0.9	6.2	-2.2	i
O=C(C[C@H]1C[C@H]2c3cc(NC(=O)Cc4ccncc4)ccc3O[C@H]2[C@H](CO)O1)NCc1cccnc1	9.8	18.5	1.6	i
Cc1ccccc1S(=O)(=O)N1CC[C@@H]2[C@H](CO)Nc3ccc(C#Cc4ccccc4)cc3[C@@H]21	3.5	-0.4	12.6	i
CCC(=O)N1C[C@H](C)[C@H](OC)CN(C)C(=O)c2ccc(NS(C)(=O)=O)cc2OC[C@@H]1C	0.4	-5.1	-0.4	i
CCCCNc1cccc2c1S(=O)(=O)N[C@@H](C)CO2	-11.2	-8.3	0.2	i
C[C@H]1CN([C@@H](C)CO)C(=O)c2cccc(NS(=O)(=O)c3ccc(Cl)cc3)c2O[C@@H]1CN(C)C(=O)Nc1ccc2c(c1)OCO2	-0.2	-1.2	-3.3	i
CC(C)NC(=O)N(C)C[C@@H]1OCCCC[C@H](C)Oc2ccc(NS(=O)(=O)c3ccc(Cl)cc3)cc2C(=O)N([C@H](C)CO)C[C@H]1C	-3.7	-4.5	0.0	i
Cc1noc(C)c1NC(=O)N[C@H]1C=C[C@@H](CC(=O)NCCCN(C)C)O[C@@H]1CO	0.4	0.3	-2.0	i
C[C@@H]1CN([C@@H](C)CO)C(=O)c2cc(NC(=O)CCN3CCOCC3)ccc2O[C@@H]1CN(C)Cc1ccc(-c2ccccc2)cc1	1.0	-3.1	10.6	i

An excerpt (hit frequency here may not be typical).
